Assay outcomes: PubChem BioAssay, Emory University Molecular Libraries Screening Center
Measles inh: inhibitors of measles virus growth in infected cells; infected Vero cells, GFP fluorescence, 64 h; hits give low values; z-score (concentration not given with the values); actives 0.1% (n = 33,000); AID 745;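 active = z-score under -3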;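 also: score is relative to mean and SD of the compound wells of a plate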
Numbers without * were called inactive.

Measles inh,mol
-0.25,CCOc1cccc2c1OC1(C)C(C(=O)N(C)C)C2NC(=S)N1c1ccccc1 (centres undefined)
-0.34,CCOC(=O)Cc1c(C)nc2c(-c3ccccc3)cnn2c1C
0.42,Cc1ccc2cc(C3CC(c4ccc(Br)cc4)=NN3S(C)(=O)=O)c(Cl)nc2c1 (centres undefined)
0.92,Cc1ccc(NC(=O)c2cc(S(=O)(=O)N3CCCCCC3)ccc2F)cc1
1.1,CC(C)C(NC(=O)C1CCCCC1)C(=O)NC1CCCC(C)C1C (centres undefined)
-0.34,c1ccc(-c2cc3c(ncn4c(-c5ccccc5)nnc34)s2)cc1
-0.25,CCC(NC(=O)NC1=NCCS1)(C(F)(F)F)C(F)(F)F
0.14,COC(=O)CSc1nnc2n(-c3ccccc3)c(=O)c3c4c(sc3n12)COC(C)(C)C4
-1.3,COc1ccc(-c2nn(C)c(=O)c3ccccc23)cc1NC(=O)c1ccc(C)cc1
-0.22,CCCSc1nnc2c(n1)OC(c1ccccc1OC(C)=O)N(C(C)=O)c1ccccc1-2 (centres undefined)
0.93,CCOC(=O)c1c(NC(=O)C2CC2c2ccccc2)sc2c1CCCC2 (centres undefined)
0.11,CCC1Oc2ccc(C)cc2N(CC(=O)NCc2cccs2)C1=O (centres undefined)
-0.35,CC(=O)Nc1ccc2nc(SCc3c(C)cc(C)c(C(C)=O)c3C)sc2c1
-0.19,CCOC(=O)COc1ccccc1C1Nc2ccc(Br)cc2-c2nnc(SC)nc2O1 (centres undefined)
-0.5,Cc1cc(C)c(C#N)c(SCC(=O)N2c3ccccc3Sc3ccc(Cl)cc32)n1
-0.1,COc1ccc(Nc2nc(-c3ccccc3F)nc3ccccc23)cc1
-0.65,Cc1ccc(C(=O)Nc2ccc3oc(-c4ccc(C(C)(C)C)cc4)nc3c2)cc1
-1.1,CC1=C(C(=O)OCCOc2ccccc2)C(c2ccccc2[N+](=O)[O-])C2=C(CCCC2=O)N1 (centres undefined)
-0.68,O=C1C2C3CC(C(Br)C3Br)C2C(=O)N1c1cccc2ccccc12 (centres undefined)
0.27,CCCn1c(=NC(=O)c2cccc3ccccc23)c(C(=O)OCC)cc2c(=O)n3ccccc3nc21
-0.83,Cc1cc(C)cc(CSCC(=O)Nc2cccc(Cl)c2C)c1
-0.59,CC1CCCN(S(=O)(=O)c2ccc3[nH]c(=O)cc(C(=O)NCc4cccnc4)c3c2)C1 (centres undefined)
-1.3,NC(=O)c1cccc(N=Cc2ccc([N+](=O)[O-])o2)c1
1.8,COc1ccc(C(=O)Nc2cccc(NC(C)=O)c2)cc1[N+](=O)[O-]
-1.2,Cn1c(=O)c2cc(C(=O)NC3CCCCC3)sc2c2ccc(Cl)cc21
-0.76,CC(=O)Nc1ccc(S(=O)(=O)NCc2ccccc2)cc1
0.08,CCCCn1c(SCC(=O)Nc2cccc(OC)c2)nc2c(sc3ccccc32)c1=O
-0.15,Cc1ccc(-c2cc(C(=O)NCc3ccco3)c3ccccc3n2)cc1C
-0.57,Cc1ccc(C)c(OCC(=O)Nc2sc3c(c2C#N)CCC(C)C3)c1C (centres undefined)
0.03,O=C(CCCSc1nnnn1-c1ccccc1)c1ccc2c(c1)Cc1ccccc1-2
2.3,C=CCn1c(SCC(=O)c2c[nH]c3ccccc23)nnc1-c1cccnc1
0.11,COc1ccc(C2C=C(c3cccs3)Nc3nc(CCCO)nn32)cc1 (centres undefined)
-0.85,O=C(CCCN1C(=O)c2cccnc2C1=O)Nc1cccc(C(F)(F)F)c1
-1.2,CC(C)CNc1nc2c(c(=O)n(C)c(=O)n2C)n1Cc1cccc(Cl)c1
-0.22,Cc1ccc(S(=O)(=O)NCC2CCC(C(=O)N3CCOCC3)CC2)cc1 (centres undefined)
0.87,CCN1C(=O)OC2(CC(C)(C)NC(C)(C)C2)C1(C)O (centres undefined)
-0.53,O=C(Nc1ccc(OCc2ccccc2)cc1)C1CCN(C(=O)c2ccccc2Cl)CC1
2.8,CCOc1ccc(NS(=O)(=O)c2cccc3cccnc23)cc1
-0.13,CC(=O)NC(c1ccco1)c1ccc2cccnc2c1O (centres undefined)
0.97,CSc1c(CC(=O)Nc2cccc(C(F)(F)F)c2)n(C)c2ccccc12
2.2,Cc1nc2c(oc3ccccc32)c(=O)o1
-0.24,O=C(CSc1nc2ccccc2[nH]1)Nc1ccc(Br)cn1
0.97,O=C(Cn1c(=O)n(-c2ccccc2)c(=O)c2c3c(sc21)CCC3)OCc1ccccc1
0.06,COc1ccc(C)cc1Cn1cnc([N+](=O)[O-])n1
1.9,OC(COC1CCCCC1)Cn1c2ccccc2c2ccccc21 (centres undefined)
-2.5,CC1CCCC(NC(=O)CCSCc2cccc(Cl)c2)C1C (centres undefined)
-1.9,CCc1ccc(C(=O)c2c[nH]c3ccc(F)cc3c2=O)cc1
-0.09,O=C(Nc1ccc2c(c1)OCCO2)N1CCOCC1
-0.27,C=CCNC(=O)c1ccc2c(=O)n(CCC3=CCCCC3)c(=S)[nH]c2c1
-1.3,Cc1c(NC(=O)CN(c2ccc(Cl)c(C(F)(F)F)c2)S(=O)(=O)c2ccccc2)c(=O)n(-c2ccccc2)n1C
0.4,CCC1CCCCN1Cc1c(O)ccc2c(=O)c(Oc3ccc(OC)cc3)c(C(F)(F)F)oc12 (centres undefined)
0.26,CC1=C(C(=O)OCC2CCCO2)C(c2cccs2)C2=C(CC(C)(C)CC2=O)N1 (centres undefined)
-0.14,COc1ccc(OC)c(NC(=O)CSc2nccn2-c2cccc(C)c2C)c1
-0.18,O=C(CN1CCCC(O)C1)N1c2ccccc2C=Cc2ccccc21 (centres undefined)
0.03,Cc1ccc(C)n1CCCCNC(=O)CC#N
-0.7,O=C(Nc1c2c(nn1-c1cccc(Cl)c1)CSC2)c1ccc(S(=O)(=O)N2CCCCC2)cc1
0.34,Cc1ccc(C)c(N2CN(Cc3ccccc3)CNC2=S)c1
-0.53,Cc1ccc(C)c(NC(=O)CC(C)Cc2ccc(Cl)cc2)c1 (centres undefined)
-0.92,CCCCCOC(=O)C1=C(C)NC2=C(C(=O)CC(C)(C)C2)C1c1ccncc1 (centres undefined)
-0.6,O=C(Nc1nc2nc(-c3ccccc3)cc(-c3ccccc3)n2n1)c1ccccc1

Quoted from the listing.
Measles inh, `CCOC(=O)COc1ccccc1C1Nc2ccc(Br)cc2-c2nnc(SC)nc2O1` (centres undefined) is entered as -0.19
Measles inh, `CC(C)CNc1nc2c(c(=O)n(C)c(=O)n2C)n1Cc1cccc(Cl)c1` is entered as -1.2
Measles inh, `Cc1ccc(C)c(OCC(=O)Nc2sc3c(c2C#N)CCC(C)C3)c1C` (centres undefined) is entered as -0.57
Measles inh, `O=C(CN1CCCC(O)C1)N1c2ccccc2C=Cc2ccccc21` (centres undefined) is entered as -0.18

Entries listed so far that have a Cl atom:
Measles inh,mol
0.42,Cc1ccc2cc(C3CC(c4ccc(Br)cc4)=NN3S(C)(=O)=O)c(Cl)nc2c1 (centres undefined)
-0.5,Cc1cc(C)c(C#N)c(SCC(=O)N2c3ccccc3Sc3ccc(Cl)cc32)n1
-0.83,Cc1cc(C)cc(CSCC(=O)Nc2cccc(Cl)c2C)c1
-1.2,Cn1c(=O)c2cc(C(=O)NC3CCCCC3)sc2c2ccc(Cl)cc21
-1.2,CC(C)CNc1nc2c(c(=O)n(C)c(=O)n2C)n1Cc1cccc(Cl)c1
-0.53,O=C(Nc1ccc(OCc2ccccc2)cc1)C1CCN(C(=O)c2ccccc2Cl)CC1
-2.5,CC1CCCC(NC(=O)CCSCc2cccc(Cl)c2)C1C (centres undefined)
-1.3,Cc1c(NC(=O)CN(c2ccc(Cl)c(C(F)(F)F)c2)S(=O)(=O)c2ccccc2)c(=O)n(-c2ccccc2)n1C
-0.7,O=C(Nc1c2c(nn1-c1cccc(Cl)c1)CSC2)c1ccc(S(=O)(=O)N2CCCCC2)cc1
-0.53,Cc1ccc(C)c(NC(=O)CC(C)Cc2ccc(Cl)cc2)c1 (centres undefined)

The listing continues.
Measles inh,mol
0.28,COc1cc(C2Oc3ccccc3C=C2[N+](=O)[O-])ccc1OCc1ccccc1 (centres undefined)
1.1,CCN1CCN(C(=O)c2cn(CC(C)C)c(=O)c3cc(OC)c(OC)cc23)CC1
-0.3,CCN1C(=O)C(C(=O)Nc2ccc(OC)cc2)C2CC1(C)Oc1ccccc12 (centres undefined)
0.66,Cc1c(C(=O)N2CC(C)CC(C)C2)sc2ncnc(N3CCOCC3)c12 (centres undefined)
-0.91,Clc1ccc(OCc2cn3ccccc3n2)cc1
-0.5,Cc1ccc(S(=O)(=O)N=C(CN2CCCCC2)N2CCN(S(=O)(=O)c3ccc(C)cc3)C2c2ccc(N(C)C)cc2)cc1 (centres undefined)
-0.37,CN1C2C=C(N(CCc3c[nH]c4ccccc34)C(=O)c3ccccc3)CC1CC2 (centres undefined)
-0.19,Cc1ccccc1C(=O)Nc1ccc(S(=O)(=O)Nc2ncccn2)cc1
1.6,O=C1C2CC=C(Cl)CC2C(=O)N1c1ccc([N+](=O)[O-])cc1O (centres undefined)
0.24,O=C(Nc1ccc(Br)cc1)C1C2C=CC3(O2)C1C(=O)N(CC1CCCO1)C3C(=O)NC1CCCCC1 (centres undefined)
-0.89,CCC(=O)N1CCc2cc(Br)cc(S(=O)(=O)N3CCN(C(=O)c4ccco4)CC3)c21
-0.74,COc1ccc(C2C(C(=O)OC3CCCC3)=C(C)NC3=C2C(=O)CC(C)(C)C3)cc1OC (centres undefined)
-1,Cc1ccc2c(c1)N(CCC(=O)NCCCN1CCOCC1)C(=O)CO2
1.1,NC(=O)c1ccccc1NC(=O)CCn1c(=S)oc2ccccc21
1.8,CN(C)c1nc(-c2ccccc2)cc(-c2ccccc2)c1C#N
-0.59,Cc1cc(NC(=O)C2CCCCC2)ccc1Br
-0.08,CCSCCOC(=O)C1=C(C)NC(=O)NC1c1cccc(OC)c1 (centres undefined)
2.1,CC(=O)NC(=O)c1cc2ccccc2oc1=Nc1cccc(F)c1
-0.38,C=CCN1C(=O)C(C(=O)N(Cc2ccccc2)Cc2ccccc2)C2CC1(C)Oc1ccccc12 (centres undefined)
0.9,CCC(=O)N1c2ccccc2-c2nnc(SC)nc2OC1C (centres undefined)
0.45,CC1(C)CC(=O)C2=C(C1)Nc1ccccc1NC2c1ccc(-c2ccc([N+](=O)[O-])cc2Cl)o1 (centres undefined)
1.5,O=C(C1CCC(CNS(=O)(=O)c2ccc(Br)s2)CC1)N1CCN(c2cccc(C(F)(F)F)c2)CC1 (centres undefined)
-0.2,COc1ccc(-c2cc3ccccc3n2CC(O)CNC2CCCCC2)cc1 (centres undefined)
0.21,CSc1nc2ccccc2n1CC(=O)Nc1c(C)cccc1C
0.13,CCCNC(=O)CCN1C(=S)NC(C)(C)CC1C (centres undefined)
-0.85,Cc1ccc(C)c(-n2cc(-c3ccccc3)[nH]c2=S)c1
-0.01,COc1cc(C)ccc1OCCn1c(-c2ccc(Br)cc2)nc2ccccc2c1=O
-0.86,COC(=O)C1=C(C)N(C)C(C)=C(C(=O)OC)C1c1cccc([N+](=O)[O-])c1
1.5,O=C(O)C1CCCCC1C(=O)NCCC1=CCCCC1 (centres undefined)
0.35,O=C(O)CNS(=O)(=O)c1ccc(Br)s1
0.03,O=C(c1ccccc1F)n1c2c(c3ccccc31)CCCC2
-0.27,Cc1ccc(-c2nc3ncccc3o2)cc1NC(=O)c1ccc(-c2ccccc2[N+](=O)[O-])o1
-0.72,Cc1sc2ncn(CC(=O)NCC(=O)O)c(=O)c2c1C
-2.1,O=C(Nc1ccc2nc(SCC(=O)N3CCOCC3)sc2c1)c1ccccc1[N+](=O)[O-]
-0.72,COc1ccc(Br)cc1C1Nc2ccc(C(C)=O)cc2C2C=CCC21 (centres undefined)
-0.67,O=C(Nc1ccc(-c2nc3ccccc3s2)c(O)c1)c1ccccc1
0.84,OC(COC1CCCCC1)Cn1cnc2ccccc21 (centres undefined)
-0.39,Cc1ccc(NC(=O)CCC(=O)O)cc1
-0.28,Cc1nc2c(cnn2-c2ccccc2Cl)c(=O)n1-c1ccc(N2CCC(C)CC2)cc1
0.84,CN(C)c1ccc(C(C2=C(O)CC(C)(C)CC2=O)C2C(=O)CC(C)(C)CC2=O)cc1 (centres undefined)
-1.1,COc1ccc(COC(=O)C2=C(C)NC3=C(C(=O)CC(C)(C)C3)C2c2cc3c(cc2[N+](=O)[O-])OCO3)cc1 (centres undefined)
0.79,COCc1nnc(NS(=O)(=O)Cc2ccccc2)s1
-1.4,O=C(c1ccc(Br)cc1)c1coc2ccccc2c1=O
-0.48,COc1ccc(S(=O)(=O)Nc2c(C)cc(O)c(S(=O)(=O)c3ccccc3)c2C)cc1
0.11,O=C1C2C3C=CC(C3=C(c3ccccc3)c3ccccc3)C2C(=O)N1c1ccccn1 (centres undefined)
-0.67,CCCOC(=O)C1=C(C)NC2=C(C(=O)CCC2)C1c1cc(Br)c(O)c(OC)c1 (centres undefined)
0.04,O=C(Nc1nnc(-c2ccc(F)cc2)o1)c1ccc(S(=O)(=O)N2CCCc3ccccc32)cc1
-0.44,CCN(CC)S(=O)(=O)c1ccc2c(c1)c(=O)c(C(=O)N1CCN(c3ccc([N+](=O)[O-])cc3)CC1)cn2C
-0.67,Cc1cc2ccccc2n1CCNC(=O)c1cc2ccccc2oc1=O
-0.25,COc1ccccc1-c1cc(C(F)(F)F)nc(S(=O)(=O)CCCC(=O)O)n1
-0.79,Cc1cc(NC(=O)Nc2cccc(F)c2)n(-c2ccc(OC(F)(F)Cl)cc2)n1
1.4,CCc1ccc(C2=CC(c3ccc(SC)cc3)n3ncnc3N2)cc1 (centres undefined)
1.6,CCOC(=O)c1c(NC(=O)CSc2nnc3ccccn23)sc(C)c1C
-1.1,O=S(=O)(c1ccccc1)n1c(SCc2ccc(F)cc2)nc2ccccc21
-0.32,O=C(NCCc1ccc(Cl)cc1)c1cc(S(=O)(=O)N2CCCC2)ccc1F
0.33,O=C(O)c1cc2c(ccc3ccccc32)oc1=O
-0.15,O=c1oc2ccc(Cl)cc2cc1-c1nnc(NCc2ccco2)s1
-0.19,O=S(=O)(Nc1ccc(O)c(Sc2nc3ccccc3s2)c1)c1ccc(Cl)cc1
-1,Cc1[nH]c2ccc(-c3nnc(SCC(N)=O)n3-c3ccc(Br)cc3)cc2c1C
-0.55,NS(=O)(=O)c1ccc(NC(=O)c2cccc([N+](=O)[O-])c2)cc1

A draw from above in order of length of the SMILES, falling.
Measles inh,mol
-0.32,O=C(NCCc1ccc(Cl)cc1)c1cc(S(=O)(=O)N2CCCC2)ccc1F
-0.72,COc1ccc(Br)cc1C1Nc2ccc(C(C)=O)cc2C2C=CCC21 (centres undefined)
-0.15,O=c1oc2ccc(Cl)cc2cc1-c1nnc(NCc2ccco2)s1

Not all compounds are listed; count on the stated rates, not on these rows.
